HSV augment: enhancers of HSV replication in host cells, fold increase, host cell viability. HSV replication augmentation in cells. maximum fold increase. 0.005% of 220,000 active. AID 1956, 2009;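 active means peak rise of 1.5-fold or more in the series; tested in PC3 cells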;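 further: first round at 10 µM; read as green reporter fluorescence; hits show the peak of a series up to 25 µM; 1 = signal of infected wells without compound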
INS promoter inh: inhibitors of insulin promoter-driven GFP, primary screen, imaging, TRM-6 cells (human fetal islet line), eGFP reporter, cell count; inhibition, % at 2 µM; reporter expression induced with tamoxifen; 0.9% of 130,000 active;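 active means inhibition above the mean plus 3 SD, with well images judged a real hit on visual review, cut at about 60% in these data, passing the limit was not always enough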
GALR2 ag: GALR2 receptor agonists, primary screen, cell-based | Galanin receptor type 2 (Homo sapiens), O43603 | GALR2-expressing cells, agonist activation read-out | activation, %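 (tested at 5 µM)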 | 0.48% of 140,000 active | AID 803, 2007;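 active means above mean plus 3 SD of all compounds, about 5% in these data, not always enough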;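 further: 0% = vehicle buffer wells and 100% = reference agonist at full effect; tested in CHO reporter cells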
PKD1 inh: inhibitors of human PKD1 kinase, biochemical, fluorescence polarization; Serine/threonine-protein kinase D1 (Homo sapiens), Q15139; PKD1 kinase fluorescence polarization assay; inhibition, %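 (about 10 µM by stock and volumes)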; 0.056% of 200,000 active;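 active means inhibition of 50% or more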;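 further: controls were vehicle for no effect and a reference inhibitor for full effect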
Target sequence (Q15139 whole entry, looked up): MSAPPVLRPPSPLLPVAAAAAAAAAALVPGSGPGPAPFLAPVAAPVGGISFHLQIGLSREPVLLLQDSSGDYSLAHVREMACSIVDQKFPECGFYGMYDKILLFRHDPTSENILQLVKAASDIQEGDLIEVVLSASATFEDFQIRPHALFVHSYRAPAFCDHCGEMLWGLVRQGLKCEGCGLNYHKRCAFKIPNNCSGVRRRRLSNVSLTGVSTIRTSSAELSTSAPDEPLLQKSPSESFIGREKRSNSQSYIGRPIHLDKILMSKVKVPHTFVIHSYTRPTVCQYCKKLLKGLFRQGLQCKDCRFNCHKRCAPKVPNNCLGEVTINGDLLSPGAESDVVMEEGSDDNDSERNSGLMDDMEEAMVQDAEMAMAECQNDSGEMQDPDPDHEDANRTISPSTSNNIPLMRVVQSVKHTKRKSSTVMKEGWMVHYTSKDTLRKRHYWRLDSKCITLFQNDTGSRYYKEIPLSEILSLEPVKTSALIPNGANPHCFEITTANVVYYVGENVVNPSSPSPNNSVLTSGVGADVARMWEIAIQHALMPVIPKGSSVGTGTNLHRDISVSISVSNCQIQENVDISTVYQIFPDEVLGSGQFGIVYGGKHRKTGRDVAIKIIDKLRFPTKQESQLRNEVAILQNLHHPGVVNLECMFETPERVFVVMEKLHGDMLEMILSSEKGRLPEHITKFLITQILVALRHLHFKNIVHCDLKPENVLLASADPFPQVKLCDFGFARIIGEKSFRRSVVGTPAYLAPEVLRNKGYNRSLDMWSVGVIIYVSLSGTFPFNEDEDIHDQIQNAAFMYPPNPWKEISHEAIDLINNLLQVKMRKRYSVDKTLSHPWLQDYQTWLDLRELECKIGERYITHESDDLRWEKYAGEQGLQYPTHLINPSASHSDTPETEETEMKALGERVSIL
RGS16-Gao: modulators of RGS16 binding to Galphao, primary screen, biochemical, human proteins, multiplexed bead flow cytometry; Regulator of G-protein signaling 16 (Homo sapiens) + Guanine nucleotide-binding protein …; bead-based flow cytometry RGS16-Galphao binding, fluorescence; actives lie on both sides; binding response (% of control), % at 10 µM; 0.38% of 220,000 active; AID 1441, 2008;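 active means below 25% or above 175%, edge rows of some plates excepted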;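 further: Galphao activated by GDP with aluminum fluoride before binding; 100% = wells without compound and 0% = beads without RGS; some results beyond the cut were filed as inactive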
INS promoter inh cell count: second read-out of INS promoter inh, no call of its own (marks repeat the call); normalized cell count, %; measured here: cell count, toxicity; reference of the scale not given here;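 cells exposed to compound for 48 h; stained nuclei by imaging scaled within each plate; lower means fewer cells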
HSV augment primary fold: second read-out of HSV augment, no call of its own (marks repeat the call); fold increase; compound at 10 µM; measured here: primary screen fold increase 10 uM; tested in PC3 cells;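 GFP signal in the first replicate; 1 = infected wells without compound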
Active calls of the source: *; i = inactive; . = no result given. Compounds as they come. About 1.2% of those tested had a hit in this group.

SMILES	HSV augment	HSV augment primary fold	INS promoter inh	INS promoter inh cell count	GALR2 ag	PKD1 inh	RGS16-Gao
Cc1c2c(nc3nc4ccccc4n13)CC(C)(C)CC2=O	i	0.89	-8	100	-2.0	-7	97
COC(=O)C(C(=O)NCC1CCCO1)C1CCCC1 (stereo not drawn)	i	0.85	45	120	-1.6	0	105
O=C(Cc1ccccc1)NN1C(=O)/C(=C/c2ccc(C(=O)O)cc2)SC1=S	i	1.1	.	.	.	.	104
O=C(NCc1cccs1)C1CCCCC1	i	0.81	-4	102	-2.6	4	103
Cc1c(C(=O)Nc2ccncc2)sc2nc(-c3ccc(F)cc3)cn12	i	0.72	.	.	3.2	7	93
Cc1cc(C)cc(NC(=O)C(NCCN2CCOCC2)c2ccccc2)c1 (stereo not drawn)	i	1.1	.	.	.	-7	89
O=C(NCC1(c2ccccc2)CCOCC1)c1ccc(Br)o1	i	0.69	.	.	-0.8	-3	92
CC(C)N(Cc1nccn1C)C(=O)c1cc(COc2ccc3ncccc3c2)on1	i	1.1	.	.	.	1	114
CC(=O)Nc1ccc(S(=O)(=O)NCC(=O)OCC(=O)NC(=O)C2CCCCC2)cc1	i	0.93	8	82	-1.6	-4	102
CCC(C)N=Cc1c(NCc2ccco2)nc2c(C)cccn2c1=O (stereo not drawn)	i	0.96	-62	117	0.8	-1	100
Cc1ccc(S(=O)(=O)NC(C(=O)O)c2ccccc2)cc1 (stereo not drawn)	i	1	.	.	.	-1	107
CCC1CSC(Nc2ccc(C(=O)/C=C/c3cccc(C)c3)cc2)=N1 (stereo not drawn)	i	0.98	.	.	-1.3	5	114
O=C(COC(=O)c1ccco1)NCc1ccco1	i	0.99	.	.	-2.1	-2	98
Cc1ccc(NC(=O)CC2C(=O)N(Cc3ccccc3)C(=S)N2NC(=O)c2cccc(F)c2)c(C)c1 (stereo not drawn)	i	0.92	.	.	-0.3	-13	98
CCC1Oc2ccccc2N(CC(=O)Nc2ccccc2OC)C1=O (stereo not drawn)	i	0.89	36	67	-0.5	5	104
Cc1cc(NC(=O)C2CCN(S(=O)(=O)c3cccs3)CC2)no1	i	0.89	-3	178	0.9	0	119
CCCc1c(C(=O)Nc2ccc(F)cc2)cnn1-c1ccccc1	i	0.71	.	.	.	.	104
COc1ccc(F)cc1S(=O)(=O)NC1CC(C)(C)NC(C)(C)C1	i	0.87	9	118	0.3	-2	97
CC(C)(C)OC(=O)N1CCC(C(=O)N[C@@H](Cc2ccccc2)C(=O)O)CC1	i	1	3	119	-0.8	1	102
COc1ccc(/C=N/NC(=O)c2c(C)n(C)c3ccc(OC)cc23)c(OC)c1	i	0.98	-9	43	0.0	6	79

Single records, from the list above. Screens in order: HSV augment, HSV augment primary fold, INS promoter inh, INS promoter inh cell count, GALR2 ag, PKD1 inh, RGS16-Gao
Entry for Cc1c2c(nc3nc4ccccc4n13)CC(C)(C)CC2=O → i, 0.89, -8, 100, -2.0, -7, 97
Entry for Cc1cc(C)cc(NC(=O)C(NCCN2CCOCC2)c2ccccc2)c1 (stereo not drawn) → i, 1.1, ., ., ., -7, 89

(continued)
SMILES	HSV augment	HSV augment primary fold	INS promoter inh	INS promoter inh cell count	GALR2 ag	PKD1 inh	RGS16-Gao
Cc1cc(C(=O)NCCc2ccc(S(N)(=O)=O)cc2)no1	i	1.1	.	.	.	-3	98
O=C1CCCN1c1ccc(S(=O)(=O)Nc2ccc3c(c2)OCCO3)cc1	i	0.67	-14	73	-1.2	4	97
Cn1ncc(Cl)c1C(=O)N/N=C/c1cc2c(cc1[N+](=O)[O-])OCO2	i	0.79	27	130	.	1	113
CCOC(=O)c1cnn(-c2cc(C(C)(C)C)nc3c(-c4ccccc4)c(C)nn23)c1N	i	1.1	-33	120	-2.6	-7	104
CSCCNC(=O)Nc1c(-c2c(Cl)cccc2Cl)noc1C	i	0.92	.	.	.	.	99
CCOC(=O)c1[nH]c(C)c(/C(O)=C2\C(=O)C(=O)N(CCCN(C)C)C2c2ccncc2)c1C (stereo not drawn)	i	0.94	33	159	-0.1	-1	104
COc1cccc(-c2cc(C(=O)NCCCn3ccnc3)no2)c1	i	1	21	123	-2.7	-7	100
Cc1ccc(S(=O)(=O)c2cc(O)ccc2O)cc1C	.	.	14	86	.	12	102
Cc1nn(C)c(=O)c(N)c1-c1cc(-c2ccc(Cl)c(Cl)c2)n[nH]1	i	0.83	.	.	.	.	88
CCn1c(SCC(=O)Nc2ccc(OC)cc2)nc2nc3c(cc2c1=O)CCCC3	i	0.91	.	.	.	.	102
Cn1c(Cc2ccccc2)nnc1SCC(=O)NCCc1ccccc1	i	1	.	.	.	-3	113
Cc1ccc(SCCC(=O)N2CCC(C)CC2)cc1	i	0.89	56	120	-1.2	-5	42
C=CCc1c(N(CC)CC)nc(C)[nH]c1=O	i	0.9	.	.	.	.	102
Clc1ccc(-c2cccs2)nn1	i	0.94	.	.	.	-3	102
CCN(CC)CCCNC(=O)CC1Sc2ccccc2NC1=O (stereo not drawn)	i	0.92	.	.	-0.5	9	152
COc1ccc(Br)cc1CNCCSc1nnnn1C	i	0.92	-37	182	-2.2	-11	98
C#CCN1C(=O)C(O)(CC(=O)c2cc(OC)ccc2OC)c2ccccc21 (stereo not drawn)	i	0.92	0	127	-1.2	0	108
Cc1ccc(-n2nnnc2-c2cnc3cc4c(cc3c2C)OCO4)cc1	i	0.94	-31	41	-0.6	2	96
COc1ccc(NC(C#N)c2ccccc2OCc2ccccc2)cc1 (stereo not drawn)	i	0.77	.	.	0.4	-1	98
O=C(CS(=O)CC(=O)N(CC(=O)NC1CCCC1)c1ccc2c(c1)OCCO2)Nc1ccc(F)cc1 (stereo not drawn)	i	0.68	2	23	-1.3	-7	79

6 compounds out of the list above, arranged by their value in RGS16-Gao, lowest first.
Molecule | RGS16-Gao
COc1ccc(NC(C#N)c2ccccc2OCc2ccccc2)cc1 (stereo not drawn) | 98
CSCCNC(=O)Nc1c(-c2c(Cl)cccc2Cl)noc1C | 99
CCn1c(SCC(=O)Nc2ccc(OC)cc2)nc2nc3c(cc2c1=O)CCCC3 | 102
CCOC(=O)c1[nH]c(C)c(/C(O)=C2\C(=O)C(=O)N(CCCN(C)C)C2c2ccncc2)c1C (stereo not drawn) | 104
Cn1c(Cc2ccccc2)nnc1SCC(=O)NCCc1ccccc1 | 113
CCN(CC)CCCNC(=O)CC1Sc2ccccc2NC1=O (stereo not drawn) | 152

Next part.
SMILES	HSV augment	HSV augment primary fold	INS promoter inh	INS promoter inh cell count	GALR2 ag	PKD1 inh	RGS16-Gao
Cc1cc(NC(=O)CS(=O)(=O)c2cn(Cc3ccccc3Cl)c3ccccc23)no1	i	0.84	-11	73	-0.5	-7	100
N=c1c2c(n(Cc3ccccc3)c3c1CCC3)CCC2	i	0.96	-14	133	-0.8	-14	101
CC(C)(C)N/N=C1\CC(c2ccccc2)Oc2ccccc21 (stereo not drawn)	i	1.1	0	110	0.1	-1	91
CC(=O)NCCc1ccc(S(=O)(=O)NCc2ccc3c(c2)OCO3)cc1	i	0.95	-14	90	0.6	0	104
CCOC(=O)c1c(CN(C)C)oc2cc(CN(C)C)c(O)c(CSc3ccccc3)c12	i	0.96	3	94	-2.4	-15	99
COc1ccc(C(=O)Nc2cc(C(=O)O)cc(C(=O)O)c2)cc1Cl	i	1	.	.	.	-1	113
CCOC(=O)c1cc(C(=O)Nc2cccc(C)c2)nn1C	i	0.98	-5	81	-3.0	17	99
CC(C)C1C(C#N)=C(N)SC(N)=C1C#N	i	1	21	76	0.4	-5	70
CCOC(=O)Cn1c(=NC(=O)c2nc3ccccc3s2)sc2cc(S(N)(=O)=O)ccc21	i	0.93	-12	144	0.6	1	96
CN(C)S(=O)(=O)c1cccc(NC(=O)COC(=O)/C=C/c2cccs2)c1	i	0.99	.	.	.	6	104
CCCCNC(=O)c1nn(-c2ccccc2OC)c(=O)c2ccccc12	i	1.1	.	.	-2.0	4	99
Cc1ccc(-c2nnc(SCC(=O)N3c4ccccc4NC(=O)C3(C)C)n2N)cc1	i	1	19	120	-1.6	-7	108
Nc1ccc(-n2nncc2-c2ccccc2)cc1	i	0.92	-286	12	-1.6	-3	37
Cc1ccccc1Nc1nc(N)nc(CSc2ccccc2)n1	i	0.95	46	59	-0.4	-9	109
COC(=O)c1c(-c2ccc(C)cc2)csc1NC(=S)NC(=O)c1ccc(F)cc1	i	0.76	0	92	-1.4	-3	112
CCC(=O)Nc1nc2ccc([N+](=O)[O-])cc2s1	i	0.98	.	.	.	.	98
NC(=O)c1oc2ccccc2c1NC(=O)CCc1ccccc1	i	0.89	-14	100	-1.0	-1	103
CCn1c(SCC(=O)N2CCc3ccccc32)nnc1-c1ccco1	i	0.83	.	.	-0.6	3	100
O=C(Oc1ccc(N2C(=O)CCC2=O)cc1)c1ccco1	i	0.97	-300	45	-3.4	-6	108
CCN(CC)c1ccc(/C=N/N2CCOCC2)cc1	i	0.93	55	110	-3.3	-14	102
CCN(c1ccc(NC(=O)COC(=O)c2ccc3ccccc3n2)cc1)C(C)C	i	1.1	-19	179	-1.7	-5	105
CCCCn1c(SCC(=O)Nc2cc(C)on2)nnc1-c1cccs1	i	1	.	.	.	.	98
CC(O)CN=c1cc(-c2ccccc2)oc2ccc(Cl)cc12 (stereo not drawn)	i	0.65	3	139	-0.6	-1	124
COCCCNC(=S)Nc1ccccc1[N+](=O)[O-]	i	1.1	18	125	.	2	100
CN(C)c1cccc(C(=O)OCC(=O)Nc2ccccc2Sc2ccccc2)c1	i	1.1	.	.	-1.1	-3	101
CC(C)CC(C(=O)N1CCOCC1)N1Cc2ccccc2C1=O (stereo not drawn)	i	1	-13	74	.	-3	101
COc1cc(NC(=O)CN2CCC(C(N)=O)(N3CCCCC3)CC2)c(OC)cc1Cl	i	0.94	.	.	.	4	97
O=c1cc(-c2ccccc2)oc2cc(OCc3ccccc3)cc(O)c12	i	0.94	50	78	.	-7	103
Fc1cccc(F)c1/C=N/Nc1ccccn1	i	0.98	.	.	.	0	98
CCOC(=O)NC(=O)/C(C#N)=N\Nc1ccc(Cl)cc1	i	0.99	-10	61	-3.2	0	85
CSc1nc2ncc(C#N)cn2n1	i	0.95	.	.	.	4	102
NC(=S)Nc1cccc(F)c1	i	0.92	.	.	.	.	102
C#CC1CN(Cc2ccccc2)CC(C#C)N1C (stereo not drawn)	i	0.96	.	.	-2.3	-8	98
CC(C(=O)N1CCN(Cc2ccc3c(c2)OCO3)CC1)c1ccc([N+](=O)[O-])cc1 (stereo not drawn)	i	0.99	.	.	.	11	96
CC(NC(=O)CCc1nnc(C2(c3ccc(Cl)cc3)CCC2)o1)C1CC1 (stereo not drawn)	i	1.2	-33	104	.	2	98
Cc1occc1-c1nnc(SCC(=O)N2CCOCC2)o1	i	0.91	.	.	-0.1	13	103
CCOC(=O)N1CCN(C(=S)NC(=O)C23CC4CC(CC(C4)C2)C3)CC1	i	0.81	58	107	.	6	98
CCOc1ccc(OCC(=O)Nc2ccccc2C(F)(F)F)cc1	i	0.94	.	.	.	1	99
COc1ccc(/C=N/NC(=O)C(Cc2c[nH]c3ccccc23)NC(=O)OCC(C)C)cc1[N+](=O)[O-] (stereo not drawn)	.	.	10	52	0.2	-3	98
CCOC(=O)C1=C(C)N=C(SC)N(C)C1c1ccccc1 (stereo not drawn)	i	1.1	6	226	-2.5	-9	102
O=c1c(-c2ccc(O)cc2)coc2cc(O)cc(O)c12	i	0.96	.	.	.	.	114
CNC(=O)c1[nH]cnc1C(=O)Nc1ccc(OC)cc1	i	0.94	.	.	.	.	107
COc1cccc(C2CC(c3ccc(C(C)C)cc3)n3nc(N)nc3N2)c1 (stereo not drawn)	i	1	.	.	-1.0	-1	104
Cc1cc(NC(=O)CSc2cn(CCNC(=O)c3ccc(Cl)cc3)c3ccccc23)no1	i	0.68	.	.	-1.3	-4	98
COc1ccccc1C(=O)Nc1ccc(S(=O)(=O)N2CCCCC2c2cccnc2)cc1 (stereo not drawn)	i	0.68	.	.	.	.	100
CCOc1ccc(C2CC(=O)c3c([nH]c(C(=O)OC)c3C)C2)cc1OC (stereo not drawn)	i	0.83	31	156	-0.5	-5	101
O=c1oc2c(-c3ccc([N+](=O)[O-])cc3)cc(O)cc2s1	i	0.87	.	.	.	.	103
Cc1cc(SCC(=O)NC(=O)NCc2ccco2)nc2ccccc12	i	1.1	.	.	-1.2	7	100
Oc1c(CN2CCCCC2)cc(Br)c2cccnc12	i	0.86	.	.	-1.2	1	76
c1ccc2c(c1)[nH]c1c(N3CCN(C4CCCCC4)CC3)ncnc12	i	1	.	.	-0.8	5	107
